Source: PubChem BioAssay
T cruzi inh – blocks replication of Trypanosoma cruzi; T. cruzi beta-gal in NIH3T3, luminescence, 90 h; inhibition, % (concentration not given with the values); 300,000 compounds, 1.4% hits;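 active means mean inhibition across valid replicates above about 55%, limit read from the data; inconclusive means mean below that limit but half or more replicates reach it; inactive means mean below it, under half of replicates reach it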;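 further: signal also drops with host cell toxicity which is not excluded here; 0% = plate median of DMSO wells and 100% = zero luminescence signal; higher percent means less beta-gal luminescence so fewer parasites; stock transfer was 50 nL into about 50 µL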
Calb FLC – C. albicans growth modulation with fluconazole; C. albicans CaCi-2 (fluconazole-resistant clinical isolate) + fluconazole, Alamar Blue growth, 48 h; growth inhibition, % (concentration not given with the values); 300,000 compounds, 0.57% hits; AID 1979;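 active means most replicates above 75%; inconclusive means exactly half above 75%; inactive means most below 75%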;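 further: all wells also contain fluconazole at 8 µg/ml as a sub-toxic cotreatment; 0% = median of DMSO wells and 100% = median of geldanamycin control wells; wells of about 8 µL received 7.5 nL stock; the first replicate is given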
Beta cell apopt – beta cell apoptosis inhibition | INS-1E cytokine-induced death, ATP luminescence, 48 h; percent of positive-control rescue, neutral wells zero | protection from apoptosis, % (test concentration not listed) | 300,000 compounds, 0.8% hits | AID 435005;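 active means all replicates at 75% or more, or half of them and the mean; inconclusive means half reach 75% but not the mean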;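 further: 0% = cytokine-treated negative control wells and 100% = positive control rescue; higher means more ATP so stronger rescue from cytokine killing; wells of about 40 µL received 100 nL stock; the first replicate is given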
LANA-H2A inh – blocks KSHV LANA binding to histone H2A/H2B. inhibition, % (no concentration beside the values). cell-free LANA-H2A/H2B peptide, fluorescence polarization. 320,000 compounds, 0.6% hits. AID 2629; in the data active means inhibition mostly above about 10%, no sharp cut-off; inactive means mostly below about 6.7%;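 further: stock transfer was 7.5 nL into about 10 µL; 0% = median of vehicle wells and 100% = median of positive control wells; one replicate is shown; the record names a cut of 25% in any replicate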
Ecoli rRNA inh – inhibits bacterial ribosomal RNA function over humanized ribosomes | E. coli WT GFP vs humanized-ribosome RFP mutants, fluorescence, 24 h; active compounds read low; DMSO median 0, no signal -100 | 350,000 compounds, 1.6% hits | GFP signal change (wild-type ribosome), % (test concentration not listed) | AID 720706;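 active means significant combined selectivity score with lowered wild-type GFP, culture density cut under 30%, mutant RFP and density less affected; inactive means any of these conditions unmet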; further: one replicate is shown; some compounds called inactive have numbers as strong as hits
ALR H2O2 inh – human ALR oxidase inhibition via reduced H2O2; AID 485317; 290,000 compounds, 3.8% hits; purified ALR, DTT oxidation, H2O2 HRP-luminol luminescence; inhibition, % (test concentration not listed);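 active means mean and each replicate at 75% or more; inconclusive means only one of the two met; inactive means neither met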;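 further: stock transfer was 7.5 nL into about 7.5 µL; 0% = neutral wells and 100% = wells with inactivated enzyme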
Target sequence (P55789 whole entry, looked up): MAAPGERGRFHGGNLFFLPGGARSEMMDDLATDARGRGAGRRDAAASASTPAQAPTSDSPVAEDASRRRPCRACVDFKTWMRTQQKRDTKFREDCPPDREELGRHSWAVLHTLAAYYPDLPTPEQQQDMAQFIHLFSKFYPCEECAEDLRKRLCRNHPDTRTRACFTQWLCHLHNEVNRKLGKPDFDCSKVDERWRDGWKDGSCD
Bfl-1 A1 inh – inhibitors of the anti-apoptotic protein A1, read as caspase activation; MEF A1-2A-BIM cells, Caspase-Glo 3/7 luminescence, 3 h; percent of clofoctol response, vehicle zero; caspase activation, % (no concentration beside the values); 330,000 compounds, 0.066% hits;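 active means over half of replicate activation scores above 10%, or exactly half above 10 with the replicate mean above 10; inconclusive means replicate mean below 10 yet half the replicates above 10; inactive means over half of replicates below 10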;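 further: wells of about 30 µL received 50 nL stock; many hits fall short of the cut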
B2AR ag – activates human beta-2 adrenergic receptor causing internalization | AID 504454 | 340,000 compounds, 0.43% hits | response, % (test concentration not listed) | Am2.2-beta2AR cells, FAP receptor internalization, flow cytometry; reference of the scale not given here | P07550;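 active means response above a set limit, near 3 SD of response in nonfluorescent compounds, cut at about 42% in these data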;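 further: stock transfer was 100 nL into about 11 µL; a reference agonist was the positive control; negative values mostly stem from fluorescent compounds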
Target sequence (P07550 whole entry, looked up): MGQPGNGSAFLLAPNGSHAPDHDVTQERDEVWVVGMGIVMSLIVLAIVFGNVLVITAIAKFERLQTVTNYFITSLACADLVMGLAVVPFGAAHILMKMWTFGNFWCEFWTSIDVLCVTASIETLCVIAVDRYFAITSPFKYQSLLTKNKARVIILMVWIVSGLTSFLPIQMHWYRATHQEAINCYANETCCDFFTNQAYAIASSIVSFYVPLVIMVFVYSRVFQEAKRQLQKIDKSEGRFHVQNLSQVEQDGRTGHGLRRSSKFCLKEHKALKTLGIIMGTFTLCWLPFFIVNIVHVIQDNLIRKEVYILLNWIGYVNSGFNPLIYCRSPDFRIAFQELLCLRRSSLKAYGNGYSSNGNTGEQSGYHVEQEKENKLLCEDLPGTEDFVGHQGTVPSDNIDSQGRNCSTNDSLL
Ecoli rRNA inh OD600 – recorded beside Ecoli rRNA inh, whose call it bears; OD600 change, %; measured here: OD600 growth;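 optical density of the mix in the first replicate; 0 = DMSO median and -100 = no signal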
Ecoli rRNA inh RFP – further read-out of Ecoli rRNA inh, marked with its call; RFP signal change, %; measured here: RFP humanized mutant strains;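 first replicate; 0 = DMSO median and -100 = no signal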
Numbers without * were called inactive; ? = inconclusive; / = not tested or not shown. Some of the compounds tested (hit frequency here may not be typical).

SMILES	T cruzi inh	Calb FLC	Beta cell apopt	LANA-H2A inh	Ecoli rRNA inh	Ecoli rRNA inh OD600	Ecoli rRNA inh RFP	ALR H2O2 inh	Bfl-1 A1 inh	B2AR ag
Nc1nnn(CC(=O)N/N=C/c2ccncc2)n1	6.8	7.4	2.3	2.7	3.0	12.2	1.0	-4.1	?	-0.9
COCC(C)n1c(SCC(=O)Nc2nccs2)nc2ccccc2c1=O (centres undefined)	/	/	-6.7	1.3	/	/	/	-1.6	-0.9	-10.1
C=CCNC(=O)/C(C#N)=C/c1ccc(C)o1	-14.0	-9.5	0.5	-0.5	9.0	14.6	2.5	-9.8	1.2	-1.9
CCCCNC(=O)CC1SC(=NCC)N(CC)C1=O (centres undefined)	-14.4	-2.9	1.8	2.3	/	/	/	-6.7	-0.5	0.8
CSc1nc2n(n1)C(C)C1=C(CCCC1=O)N2 (centres undefined)	-9.7	-3.5	-1.4	2.9	9.0	3.1	-2.6	12.4	-0.2	3.2
Cc1cccc(-n2c(C)nc3sccc3c2=O)c1	-5.0	-1.6	-13.5	-3.8	/	/	/	-2.8	-0.4	-1.6
CCOC(=O)C(=O)Nc1ccccc1C(=O)Nc1ccc(OC)cc1	-11.1	-7.6	-10.4	10.2	10.4	14.7	-5.9	0.5	0.4	0.7
CCc1ccc(OCCSc2nc3ccccc3n2CC(=O)O)cc1	-3.7	-2.2	-1.8	5.2	-14.8	-0.4	0.8	0.1	-0.1	2.4
COC(=O)c1cn(Cc2cccc(C)c2)nn1	-12.0	-1.5	-4.6	-5.0	5.8	11.9	8.8	-1.9	0.1	-2.3
O=C(CSc1nnc2c(n1)[nH]c1ccccc12)N1CCCCC1	-6.1	-1.5	-9.5	-5.8	2.9	9.6	0.7	-4.7	0.7	-2.4
O=C(Nc1ccc(OCC(=O)N2CCOCC2)cc1)c1cncc(Br)c1	10.5	11.9	-2.6	-2.2	10.1	5.3	2.4	-7.9	-0.1	3.8
CCOC(=O)C1CN(S(=O)(=O)c2ccc(OC)cc2)c2cc(Cl)ccc2O1 (centres undefined)	-11.1	8.4	-0.6	-2.7	-10.7	-24.1	3.4	-7.6	0.8	-2.5
COc1ccc(C2NC(c3ccc(OC)cc3)C([N+](=O)[O-])C(C)(C)C2[N+](=O)[O-])cc1 (centres undefined)	23.8	-0.5	-0.3	-1.4	8.6	-3.7	-4.2	-3.5	0.1	-12.1
N#CCSc1nc2sc3c(c2c(=O)n1C1CCCCC1)CCCC3	1.9	-3.5	-1.7	-3.6	/	/	/	-21.4	-2.7	9.2
O=S(=O)(c1ccccc1)N(CC(O)Cn1c2ccccc2c2ccccc21)c1ccccc1 (centres undefined)	35.3	3.6	/	1.5	/	/	/	-0.8	0.3	-2.2
Cc1nnc(N2CCc3ccccc3C2)[nH]c1=O	-7.7	0.3	-5.3	0.9	/	/	/	/	0.1	-8.6
O=C(O)c1cccc(NC(=O)C2C3C=CC(C3)C2C(=O)OCC(F)(F)C(F)F)c1 (centres undefined)	-17.4	2.9	-0.2	0.8	/	/	/	-1.6	-1.4	-2.1
O=C(c1ccco1)N1CCN(S(=O)(=O)c2cccc(C(F)(F)F)c2)CC1	9.7	7.1	0.8	-4.0	/	/	/	-21.5	/	-5.1
O=C(NCCc1ccccc1)c1cccc([N+](=O)[O-])c1	-8.1	0.7	0.8	6.1	6.2	1.5	-5.7	-1.6	-0.8	-2.9
CC1CN(C2CCN(S(=O)(=O)c3ccccc3)CC2)CC(C)O1 (centres undefined)	-0.3	-7.9	/	0.2	0.8	8.2	1.5	0.6	1.2	4.8
COc1ccc(C(CC(=O)O)NC(=O)Cc2ccccc2)cc1OC (centres undefined)	-10.3	-9.0	-5.9	-0.1	/	/	/	-0.7	0.4	2.9
COc1ccccc1CNC(=O)CSc1ccc(-c2ccccn2)nn1	-1.4	8.2	3.7	-1.5	1.3	-6.4	-0.3	-1.9	0.3	13.2
Cc1ccc(C(=O)CCC(=O)OCC(=O)Nc2ccccc2SCC#N)cc1	/	/	-3.0	-0.2	-7.6	-2.2	-0.5	5.8	-0.7	-198.8
COc1ccc(C2(O)CCN(Cc3nnnn3Cc3ccc(F)cc3)CC2)cc1	12.0	-8.2	/	1.0	-6.0	-5.9	-2.3	0.2	0.1	10.4
Cc1ccc2c3c(cccc13)-c1ccccc1C2=O	10.7	27.3	4.5	/	-12.3	-24.6	-5.9	/	0.9	15.4
Cc1ccc(Oc2ncccc2CO)cc1	-15.4	?	-1.2	0.9	15.0	3.6	-0.4	/	-0.4	0.5
COCCNC(=O)Cn1c(=O)n(CCC(=O)NCCc2ccccc2)c(=O)c2ccccc21	-0.8	-9.0	-5.1	-1.3	/	/	/	-2.7	-0.1	2.8
CC1(O)CC(=O)N(c2ccccc2)O1 (centres undefined)	-8.8	-2.0	-8.8	-1.0	/	/	/	/	0.5	3.7
CC(C)c1cc(C(=O)NCc2cccnc2)no1	-19.1	11.0	-0.9	-0.9	10.5	8.4	-2.0	-6.7	-0.1	-1.4
Cc1ccc(-c2nn(-c3ccccc3)cc2/C=N/NC(=O)c2ccc(Br)o2)cc1	22.9	-4.1	135.6*	3.6	/	/	/	/	-0.9	31.5
CC(C)N1CCC(N2CCN(Cc3ccc(C#CC(C)(C)O)s3)CC2CCO)CC1 (centres undefined)	5.8	6.0	-7.4	1.7	12.5	19.1	2.0	-10.1	-0.2	-4.4
CC(=O)c1ccc(-c2ccc(C(=O)NCC(c3ccc(F)cc3)N3CCOCC3)o2)cc1 (centres undefined)	-7.9	3.7	-3.4	-0.6	-13.6	-24.6	0.1	1.6	0.1	-5.5
COc1ccccc1N(C)S(=O)(=O)c1ccc(C(=O)OCC(=O)Nc2cc(C)on2)cc1	-17.0	-0.5	-6.3	-4.9	9.7	11.5	0.8	-4.9	0.8	1.2
CCc1cc(=O)oc2c(C)c(OCC(=O)NC3CC(C)(C)NC(C)(C)C3)ccc12	-1.6	-8.0	-6.2	4.3	/	/	/	-2.1	1.3	-5.9
Cc1ccc(C(=O)Nc2nc3ccccc3n3nnnc23)cc1	14.1	3.3	-0.8	-0.7	/	/	/	2.3	-0.2	-13.0
CCOc1ccc(N2CC(C(=O)NCCc3c[nH]c4ccc(OC)cc34)CC2=O)cc1 (centres undefined)	7.1	2.8	/	-5.5	1.3	3.1	-4.0	-10.8	0.4	3.6
COc1ccc(N2CC(O)=C(c3nc(-c4ccccc4)cs3)C2=N)cc1	-5.6	5.6	-6.5	-1.7	2.9	1.9	-2.3	/	0.5	1.0
Cc1ccc(-c2nc(CN3CCCC(C(=O)N4CCOCC4)C3)c(C)o2)cc1 (centres undefined)	14.1	0.5	-0.3	1.2	2.2	13.4	2.3	9.6	0.7	-0.4
Cc1ccc(C)n1-c1nn(S(=O)(=O)c2ccccc2)c2cccc(F)c12	26.1	-1.0	0.2	-4.4	/	/	/	1.0	0.4	-1.5
COc1cc(C(=O)Nc2nc(-c3cccs3)cs2)cc(OC)c1OC	1.3	36.9	/	-15.9	-29.9*	-18.9*	-3.4*	-0.7	-0.1	7.3
CCC(=O)N(CCCN(C)C)c1nc(-c2cc(OC)ccc2OC)cs1	47.6	-58.8	2.1	0.7	/	/	/	-37.3	-0.1	6.1
Cc1ccc2c(c1)N(CC(=O)N1CCCc3ccccc31)C(=O)C(C)O2 (centres undefined)	/	44.2	1.8	-3.2	7.6	4.2	2.0	1.5	0.5	5.0
Cc1cccc(-n2c(-c3ccncc3)n[nH]c2=S)c1	-10.5	4.9	4.3	1.7	/	/	/	91.5*	0.5	1.9
O=C(COc1ccc(F)cc1)NC1CC1	-17.9	1.7	-1.5	-1.3	/	/	/	-10.5	-0.1	6.2
Cc1ccc(C)c(NC(=O)COC(=O)c2ccc3ccccc3n2)c1	/	/	-2.7	-2.0	7.9	18.8	-2.6	/	-0.3	13.6
O=C(Nc1nnc(Cc2ccc(F)cc2)s1)Nc1ccccc1F	-8.4	-6.6	-4.9	4.4	10.7	8.3	-0.8	-1.4	0.1	-1.6
Nc1c(C(=O)CSc2nc3ccccc3o2)c(=O)[nH]c(=O)n1C1CC1	/	/	1.0	-0.2	7.7	5.4	-1.7	0.1	0.5	-13.3
Cc1c(CN2CCCC(C(=O)c3cccc(OC(C)C)c3)C2)c(=O)n(-c2ccccc2)n1C (centres undefined)	17.2	11.1	-1.3	2.1	14.6	7.9	-0.8	-1.9	-0.5	-6.9
[O-][n+]1ccc(OCc2ccccc2)cc1	3.6	-3.7	-0.9	0.6	7.3	-10.5	-2.7	-3.3	1.8	5.2
CSc1ccccc1OCc1cc(C(=O)NC2CCc3ccccc32)no1 (centres undefined)	-1.6	-5.1	1.1	-10.5	15.9	14.9	-0.6	-3.2	-0.3	2.5
Cc1sc(NC(=O)CCC(=O)O)c(C(N)=O)c1-c1ccccc1	-7.6	1.1	-2.1	-0.4	1.7	-1.1	-12.9	39.4	0.4	0.7
Cc1ccc(NC(=O)COC(=O)c2ccc(S(=O)(=O)N3CCCCC3)cc2)cc1	/	/	0.2	0.9	4.2	7.6	-5.0	/	-0.8	0.9
